Cruzain Triton: qHTS Assay for Promiscuous and Specific Inhibitors of Cruzain (with detergent) | Cruzipain (Trypanosoma cruzi), P25779 | purified cruzain, Z-FR-AMC fluorescence, 0.01% Triton | Potency, µM, without a hit: max response, negative = inhibition, most hits filed as inhibitors | actives 0.43% (n = 200,000);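 note: plate controls were neutral wells for no effect and buffer without enzyme for full effect; nearly all actives have a fitted effect of over 40% in size; top concentration of the series not given in the record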
Target sequence (P25779 123-467 limits assumed): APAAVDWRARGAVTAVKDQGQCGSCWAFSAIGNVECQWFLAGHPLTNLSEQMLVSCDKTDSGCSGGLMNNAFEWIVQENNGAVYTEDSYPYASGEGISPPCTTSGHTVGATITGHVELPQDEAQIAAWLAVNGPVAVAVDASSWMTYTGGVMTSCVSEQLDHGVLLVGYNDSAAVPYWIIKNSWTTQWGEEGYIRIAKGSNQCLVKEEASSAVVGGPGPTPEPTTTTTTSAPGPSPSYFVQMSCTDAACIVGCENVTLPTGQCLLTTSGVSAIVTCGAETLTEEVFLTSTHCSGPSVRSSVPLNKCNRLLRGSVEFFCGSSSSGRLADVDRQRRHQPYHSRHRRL
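Steps: dispense cruzain (1.5 nM final) in acetate buffer pH 5.5 with DTT and 0.01% Triton X-100; pin-transfer compounds; incubate 15 min RT; add Z-FR-AMC (2 uM final); read fluorescence every 30 s, using the 60 s intensity change.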
MARV entry inh: qHTS for inhibitors of binding or entry into cells for Marburg Virus; actives 1.8% (n = 300,000); AID 540276, 2011; Potency, µM (titrated, usually from 37.8 µM), inactives show at the highest dose activity change, negative = inhibition, hits mostly inhibitors; Marburg virus pseudotyped entry inhibition, cell reporter; control for the full effect not named in the record; about a third of the inactives were read at about 46 µM; active = well fitted inhibition curve with a large enough effect; inconclusive = small, poorly fitted or top-dose-only effect, or effect the other way; inactive = flat fitted curve, though single readings scatter; tested in HEK293 cells; about a fifth of its hits are not listed in these tables; note: % is set by controls: 0 for no effect and ±100 for the full control effect; luciferase read-out
RE007 growth inh: qHTS Assay for Inhibitors of the HIV-1 protein Vpr; S. pombe RE007 Vpr strain, BacTiter-Glo ATP luminescence, 24 h; control for the full effect not named in the record; Potency, µM (top dose mostly 92.2 µM), without a hit: at the highest dose activity change, negative = less growth; actives 0.21% (n = 360,000); active = well fitted falling curve with a large enough effect; inconclusive = small, poorly fitted or top-dose-only effect; inactive = no such curve, though single readings can be large or run the other way;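 note: % is set by controls: 0 for no effect and ±100 for the full control effect; nearly all actives have a fitted effect of over 50% in size; the assay follows cell death caused by Vpr and the record does not say whether a fall means rescue or toxicity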
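Fission yeast strain RE007, carrying one chromosomally integrated HIV-1 vpr copy, was seeded at OD 0.01 in PMG+AL medium with 23 nL pinned compound. After 24 h at 30 °C and 99% humidity, viability was read by BacTiter-Glo luminescence.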
LASV entry inh: qHTS for Inhibitors of binding or entry into cells for Lassa Virus; Lassa virus pseudotype entry inhibition, cell reporter; control for the full effect not named in the record; AID 540256, 2011; Potency, µM (highest dose often 37.9 µM), for the others: top-dose activity change, negative = inhibition, most hits filed as inhibitors; actives 1.2% (n = 300,000); active means well fitted inhibition curve with a large enough effect; inconclusive means small, poorly fitted or top-dose-only effect, or effect the other way; inactive means flat fitted curve, though single readings scatter; tested in HEK293 cells; note: % is set by controls: 0 for no effect and ±100 for the full control effect; nearly all actives have a fitted effect of over 50% in size; luciferase read-out
StopGo reporter: High Throughput Screening for Foot and Mouth Disease Virus Antivirals | human cells with a luciferase reporter of 2A StopGo recoding; control for the full effect not named in the record | Potency, µM (highest dose often 57.9 µM), without a hit: at the highest dose signal change, negative = less light | actives 1.2% (n = 410,000); active = well fitted falling curve with a large enough effect; inconclusive = small, poorly fitted or top-dose-only effect; inactive = no such curve, though single readings can be large or run the other way; tested in HEK293T cells; note: % is set by controls: 0 for no effect and ±100 for the full control effect; nearly all actives have a fitted effect of over 45% in size; luciferase light after 4 h
SARS PLpro yeast: qHTS of Yeast-based Assay for SARS-CoV PLP. S. cerevisiae expressing SARS-CoV PLpro, growth rescue; control for the full effect not named in the record. Potency, µM (series often up to 32.9 µM), inactives show at the top dose activity, positive = growth rescue. actives 0.19% (n = 330,000); active means well fitted rising curve with a large enough effect; inconclusive means small, poorly fitted or top-dose-only effect; inactive means no such curve, though single readings can be large or run the other way; note: 0% is about no effect; nearly all actives have a fitted effect of over 55% in size; growth read by luminescence after 48 h
NS1 inh: qHTS Assay for Inhibitors of Influenza NS1 Protein Function | Potency, µM (highest dose often 46.1 µM), for the others: top-dose activity, positive = more growth | actives 0.4% (n = 270,000) | S. cerevisiae slowed by influenza A NS1, growth recovery by OD600 | AID 2326, 2010; active means well fitted rising curve with a large enough effect; inconclusive means small, poorly fitted or top-dose-only effect; inactive means no such curve, though single readings can be large or run the other way; note: nearly all actives have a fitted effect of over 50% in size
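Compounds were scored for reversing the slow growth caused by influenza A NS1 in S. cerevisiae, measured by optical density at 600 nm. Assay medium contained 2% galactose at pH 6.0; NS1-free yeast of the same strain were the positive control.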
Cruzain noTriton: qHTS Assay for Promiscuous and Specific Inhibitors of Cruzain (without detergent). Cruzipain (Trypanosoma cruzi), P25779. purified cruzain, Z-FR-AMC fluorescence, no detergent. Potency, µM, without a hit: max response, negative = inhibition, actives largely listed as inhibitors. actives 2.3% (n = 200,000);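 note: plate controls were enzyme without inhibitor for no effect and buffer without enzyme for full effect; nearly all actives have a fitted effect of over 40% in size; top concentration of the series not given in the record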
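Detergent-free condition (0.00005% Triton X-100) in acetate buffer pH 5.5 with DTT. 1.5 nM enzyme and compound were pre-mixed 15 min, then 2 uM Z-FR-AMC substrate added; reaction progress from fluorescence change between first and third reads (60 s).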
An asterisk follows results filed as active; ? = inconclusive; . = not tested or not shown; & = joins results of further samples; [ ] = another dose, or the depositor's remark. Unless noted, calls come from the whole dose curve; as a rule, active = well fitted curve in the direction sought with a large enough effect; inconclusive = small, poorly fitted or top-dose-only effect, or another doubt; inactive = no such curve, though single readings can be large; an effect the other way counts as inactive or inconclusive. Potency is the fitted concentration of half-maximal effect.

molecule	Cruzain Triton	MARV entry inh	RE007 growth inh	LASV entry inh	StopGo reporter	SARS PLpro yeast	NS1 inh	Cruzain noTriton
CCOc1ccc(N(CC(=O)NC(C)CC)S(=O)(=O)c2c(C)noc2C)cc1 (stereo unspecified)	-0.8%	.	.	.	.	-5%	?	0%
Cc1c(CN(C)C(=O)/C=C/c2ccc([N+](=O)[O-])cc2)cnn1C	-1.7%	?	-11%	-12%	-3%	15%	6%	5%
Cc1cc(C)c(NC(=S)NCCO)c(C)c1	.	.	8%	.	12%	0%	4%	.
COc1cc2oc3ccccc3c2cc1N(CC(=O)N(C)C)S(=O)(=O)c1ccc(C)cc1	3.0%	-8%[46.1 µM]	-4%	24%	-13%	-2%	3%	?
Cc1c(C(=O)OCCOc2ccccc2)[nH]c2c1C(=O)CCC2	-1.8%	?	8%	7.9µM*	-63%	-10%	-69%	3%
Cc1cccc(NC(=O)c2ccc(NC(=O)CC3SC(N4CCCC4)=NC3=O)cc2)n1 (stereo unspecified)	.	?	-10%	-2%	11%	0%	.	.
COc1cc(Cl)cc(C2NC(=O)NC(C)=C2C(=O)NCc2ccccc2)c1O (stereo unspecified)	2.0%	-1%	-6%	21%	.	2%	14%	-7%
C=CCN1C(=O)c2ccccc2C1(O)Cc1ccccc1 (stereo unspecified)	.	5%[46.1 µM]	9%	-7%[46.1 µM]	-2%	10%	-1%	.
COc1ccc(C2Nc3ccccc3C(=O)N2Cc2ccco2)cc1COc1ccc([N+](=O)[O-])cc1 (stereo unspecified)	0.3%	?	-7%	?	-17%	-10%	0%	?
CC1=Nc2cc(C(=O)NC(C)C)ccc2Sc2ccc(C)cc21	-3.5%	?	.	3%[46.1 µM]	-18%	.	.	-5%
O=C(c1cc(-c2ccccc2)nc2ccccc12)N1CCc2ccccc2C1	-3.1%	?	10%	6%	-22%	-89%	-28%	-5%
S=c1[nH]nc(COc2ccccc2)n1/N=C/c1cccnc1	-3.0%	-7%	-18%	?	2%	2%	14%	-1%
Cc1ccc(C(NC(=O)C2CCCCC2)c2c(O)ccc3ccccc23)cc1 (stereo unspecified)	-1.2%	?	2%	?	-21%	-28%	?	-25%
O=C(Nc1ccc2nccnc2c1)c1cnccn1	-1.4%	2%[46.1 µM]	-3%	11%	58%[activator]	8%	-12%	0%
COC(=O)NC(=S)Nc1ccccc1NC(=S)NC(=O)OC	2.0%&-3.7%	.	-14%	.	-14%&-5%	.	.	-8%&-9%
COCCCNC(=O)CCSc1ccc(C)cc1	-0.8%	3%	1%	-3%	2%	2%	-7%	2%
CCOC(=O)C1CCCN(S(=O)(=O)c2cc(Br)cc3c2N(C(=O)CC)CC3)C1 (stereo unspecified)	-1.0%	-9%&16%[46.1 µM]	2%	3%&9%[46.1 µM]	-15%&1%	-7%	-12%	-7%
Nc1ccc(-c2ccc(N)c([N+](=O)[O-])c2)cc1[N+](=O)[O-]	.	-17%	-3%	2%	7%	1%	.	.
Cc1ccn2c(Nc3ccc4c(c3)OCO4)c(-c3ccc(O)cc3)nc2c1	-16%	1%&1%[46.1 µM]	-10%	-8%[46.1 µM]	8%&1%	0%	9%	-26%
Cc1ccc(-c2nc3cc(NC(=O)C(C)C)ccc3o2)cc1C	-4.7%	?	-4%	?	-67%	6%	-35%	?
O=C(CN(C1CCCCC1)S(=O)(=O)c1ccc(Cl)cc1)N1CCOCC1	1.7%	-9%	8%	-18%	70%[activator]	-3%	-12%	12%
CC(=O)Nc1ccc(S(=O)(=O)N(C)CC(=O)NNC(=O)Cc2nc3ccccc3n2C)cc1	.	20%	-17%	11%[46.1 µM]	0%	12%	.	.
CCc1ccc(NC(=S)Nc2cccc(OC)c2)cc1	0.0%	23%	16%	-1%	35%[activator]	22%	2%	-4%
Cc1cccc2cc(CN(Cc3ccco3)C(=O)NC3CCCCC3)c(=O)[nH]c12	2.5%	?	-2%	?	-24%	-5%	13%	-12%
O=C(OCn1nnc2ccccc2c1=O)c1ccc(Br)o1	-15%	-3%	3%	-40%[14.3 µM]	-10%	-35%	-7%	-4%
C#CC1(NC(=O)NC(C)C)CCCCC1	.	.	-5%	.	-2%	1%	7%	.
COc1ccc(CN2CCNC(=O)C2CC(=O)NCc2cc(C)n(C)n2)c(F)c1 (stereo unspecified)	.	26%	3%	-15%	-15%	?	0%	.
COc1ccc(-c2nnc(SCc3c(C)noc3C)o2)cc1	.	12%[46.1 µM]	3%	.	15%	-7%	.	.
COc1cccc(OC)c1C(=O)Nc1ccc(N2CCCC2)cc1	.	21%[46.1 µM]	3%	-16%[46.1 µM]	-5%	-1%	5%	.
C=CCOC(=O)N[C@H](C[N+](=O)[O-])c1ccccc1	1.8%	?	.	?	.	.	.	3%
CN(c1ccccc1)S(=O)(=O)c1cc(C(=O)c2nccn2C)ccc1Cl	-4.1%	?	12%	?	.	-1%	-67%	4%
COC(=O)c1cccc(NC(=O)CN2CCN(c3ccc(OC)cc3)CC2)c1	4.7%	20%	-5%	?	-9%	10%	-10%	3%
O=C(c1cc(COc2c(F)cccc2F)on1)N1C[C@H]2CC[C@H]1C2	.	6%[46.1 µM]	7%	21%[46.1 µM]	32%[activator]	4%	-19%	.
CCOC(=O)c1cc(-c2ccc(C)cc2)n(CCC(=O)NCCc2ccc(C)cc2)c1C	0.1%	?	.	.	-13%	.	.	13%
c1ccc2c(c1)CC(N1CCN(c3cccc4c3OCCO4)CC1)C2	-6.2%	?	.	15%	.	.	?	-4%
O=C(c1ccc2c(c1)N(Cc1ccccc1)CCS2)N1CCC2(CC1)OCCO2	.	.	-6%	.	15%	-5%	4%	.
Cc1cc(O)cc(O)c1-c1onc(C(F)(F)F)c1-c1cscn1	-9.2%	?	-3%	-26%	?	-4%	-8%	6%
Cc1cc(C)cc(OCC(=O)OCC(=O)NC2CC2)c1	.	29%[46.1 µM]	14%	24%[46.1 µM]	21%	-9%	.	.
CCN1C(=O)C(CC(=O)Nc2ccc(Br)cc2)N(CCCc2ccccc2)C1=S (stereo unspecified)	-6.8%	?	2%	13µM*	?	-45%	-35%	-9%
COC/C=C/C1=CC2=CC(=O)C(C)(OC(=O)c3cnc4ccccc4n3)C(=O)C2=CN1c1ccccc1 (stereo unspecified)	.	.	-2%	.	-25%	0%	11%	.
O=C(Nc1ccc(NC(=O)c2ccccc2)nc1)c1ccncc1	.	.	4%	.	41%[activator]	-1%	8%	.
CCOc1ccc(C2C(C(=O)c3ccc(C)o3)=C(O)C(=O)N2Cc2cccnc2)cc1 (stereo unspecified)	.	.	-10%	.	3%	5%	-7%	.
O=C(NC(=S)Nc1ccc(N2CCN(C(=O)c3ccccc3)CC2)cc1)c1cccs1	.	?	-12%	?	?	0%	10%	.
COc1ccc(C2c3c(oc4ccc(Cl)cc4c3=O)C(=O)N2CCN2CCOCC2)cc1 (stereo unspecified)	.	4%[46.1 µM]	5%	2%	-8%	5%	1%	.
Cc1nc2nc(SCC(=O)NCc3ccccc3Cl)nn2c(C)c1Cc1ccccc1	-3.3%	-1%[46.1 µM]	.	-24%[46.1 µM]	-28%	.	.	-6%
COc1cccc(CN2C(=O)c3ccccc3S2(=O)=O)c1	.	-11%[46.1 µM]	0%	.	2%	-5%	-18%	.
COC1=C/C(=C/c2c(N)n3cc(C)sc3nc2=O)C=CC1=O	-6.7%	?	.	?	30%	0%	-1%	-19%
COc1cc(SC)ccc1C(=O)NCCc1c[nH]c2ccccc12	.	?	6%	?	6%	-10%	-80%	.
O=C(CC1SC(N2CCOCC2)=NC1=O)Nc1cccc(C(F)(F)F)c1 (stereo unspecified)	.	-15%	-7%	0%	-10%	-2%	.	.
CC(C)(C)c1nnc(NC(=O)c2ccc(Cl)nc2)s1	.	.	-5%	.	35%[activator]	0%	7%	.

Additional entries follow.
molecule	Cruzain Triton	MARV entry inh	RE007 growth inh	LASV entry inh	StopGo reporter	SARS PLpro yeast	NS1 inh	Cruzain noTriton
COC(CNC(=O)[C@H](Cc1ccccc1)N1Cc2ccccc2C1=O)OC	.	25%[46.1 µM]	8%	1%[46.1 µM]	7%	0%	2%	.
NC(=O)C1CCN(C(=O)C2c3ccccc3C(=O)N3CCc4ccccc4C23)CC1 (stereo unspecified)	0.8%	-8%	9%	-21%[14.3 µM]	18%	-3%	4%	6%
CC(C)CNC(=O)c1ccccc1NC(=O)/C=C/c1cccc([N+](=O)[O-])c1	-2.3%	-2%	-4%	-1%	-18%	20%	17%	-14%
CCN1C(=O)c2cccc3c(S(=O)(=O)Nc4ccccc4OC)ccc1c23	-1.3%	?	2%	-6%	6%	?	0%	18%
COCCNC(=O)C(c1ccc(O)cc1)N(Cc1ccco1)C(=O)CCC(=O)Nc1nccs1 (stereo unspecified)	11%	?	-1%	?	-23%	5%	-3%	-8%
CC(=O)N1CCN(C(=O)C(=O)Nc2c3c(nn2-c2ccc(Cl)cc2)CSC3)CC1	-1.7%	.	.	16%[46.1 µM]	-11%	.	.	?
O=C(Nc1cc2c3c(c1)C1CCCC1CN3CC1CCCC21)c1ccc([N+](=O)[O-])cc1 (stereo unspecified)	4.6%	?	-23%	9%	-18%	3%	13%	25µM*
O=C(O)CCCn1c(O)c(C=C2N=c3ccccc3=N2)sc1=S	.	.	-15%	.	-29%	4%	-1%	.
Cc1ccc(CCNC(=O)c2ccc(CS(=O)(=O)c3ccc(Br)cc3)o2)cc1	-4.8%	?	.	3%[46.1 µM]	10%	.	.	-9%
CCC1CN(C(=O)N2CCC(C(=O)NCc3ccc(OC)cc3OC)CC2)c2ccccc2O1 (stereo unspecified)	.	.	-12%	.	-29%	?	7%	.
